High-throughput results: PubChem, National Center for Advancing Translational Sciences (NCATS)
NS1 inh: qHTS Assay for Inhibitors of Influenza NS1 Protein Function; Potency, µM (titrated, usually from 46.1 µM), for the others: top-dose activity, positive = more growth; S. cerevisiae slowed by influenza A NS1, growth recovery by OD600; actives 0.4% (n = 270,000); AID 2326, 2010; active means well fitted rising curve with a large enough effect; inconclusive means small, poorly fitted or top-dose-only effect; inactive means no such curve, though single readings can be large or run the other way; note: nearly all actives have a fitted effect of over 50% in size
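OD600 was taken as the measure of yeast growth restored by compound in an NS1-expressing S. cerevisiae strain. Cells had been washed out of glucose medium and diluted 1:100 into galactose -URA medium, pH 6.0.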
Cruzain noTriton: qHTS Assay for Promiscuous and Specific Inhibitors of Cruzain (without detergent); AID 1476, 2009; actives 2.3% (n = 200,000); Cruzipain (Trypanosoma cruzi), P25779; Potency, µM, inactives show max response, negative = inhibition, most hits filed as inhibitors; purified cruzain, Z-FR-AMC fluorescence, no detergent;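 note: plate controls were enzyme without inhibitor for no effect and buffer without enzyme for full effect; nearly all actives have a fitted effect of over 40% in size; top concentration of the series not given in the record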
Target sequence (P25779 123-467 limits assumed): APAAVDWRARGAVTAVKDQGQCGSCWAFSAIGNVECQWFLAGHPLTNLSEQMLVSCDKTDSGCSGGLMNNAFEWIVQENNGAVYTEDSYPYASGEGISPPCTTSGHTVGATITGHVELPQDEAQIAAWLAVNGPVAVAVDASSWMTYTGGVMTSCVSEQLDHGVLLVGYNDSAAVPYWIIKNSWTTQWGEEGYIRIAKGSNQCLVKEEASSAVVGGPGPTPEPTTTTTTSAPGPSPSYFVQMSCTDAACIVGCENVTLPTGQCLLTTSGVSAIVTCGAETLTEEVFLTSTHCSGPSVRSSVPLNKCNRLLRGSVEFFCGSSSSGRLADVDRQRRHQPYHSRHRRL
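Detergent-free condition (0.00005% Triton X-100) in acetate buffer pH 5.5 with DTT. 1.5 nM enzyme and compound were pre-mixed 15 min, then 2 uM Z-FR-AMC substrate added; reaction progress from fluorescence change between first and third reads (60 s).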
Marburg entry inh: qHTS for inhibitors of binding or entry into cells for Marburg Virus | AID 540276, 2011 | Marburg virus pseudotyped entry inhibition, cell reporter; control for the full effect not named in the record; about a third of the inactives were read at about 46 µM | Potency, µM (top dose mostly 37.8 µM), inactives show at the top dose activity change, negative = inhibition, actives largely listed as inhibitors | actives 1.8% (n = 300,000); active = well fitted inhibition curve with a large enough effect; inconclusive = small, poorly fitted or top-dose-only effect, or effect the other way; inactive = flat fitted curve, though single readings scatter; tested in HEK293 cells; about a fifth of its hits are not listed in these tables; note: % is set by controls: 0 for no effect and ±100 for the full control effect; luciferase read-out
2A StopGo: High Throughput Screening for Foot and Mouth Disease Virus Antivirals; human cells with a luciferase reporter of 2A StopGo recoding; control for the full effect not named in the record; Potency, µM (highest dose often 57.9 µM), without a hit: top-dose signal change, negative = less light; actives 1.2% (n = 410,000); AID 1159524, 2015; active = well fitted falling curve with a large enough effect; inconclusive = small, poorly fitted or top-dose-only effect; inactive = no such curve, though single readings can be large or run the other way; tested in HEK293T cells; note: % is set by controls: 0 for no effect and ±100 for the full control effect; nearly all actives have a fitted effect of over 45% in size; luciferase light after 4 h
Lassa entry inh: qHTS for Inhibitors of binding or entry into cells for Lassa Virus; Lassa virus pseudotype entry inhibition, cell reporter; control for the full effect not named in the record; Potency, µM (doses to about 37.9 µM), for inactives: top-dose activity change, negative = inhibition, hits mostly inhibitors; actives 1.2% (n = 300,000); active means well fitted inhibition curve with a large enough effect; inconclusive means small, poorly fitted or top-dose-only effect, or effect the other way; inactive means flat fitted curve, though single readings scatter; tested in HEK293 cells; note: % is set by controls: 0 for no effect and ±100 for the full control effect; nearly all actives have a fitted effect of over 50% in size; luciferase read-out
Cruzain Triton: qHTS Assay for Promiscuous and Specific Inhibitors of Cruzain (with detergent) | Cruzipain (Trypanosoma cruzi), P25779 | purified cruzain, Z-FR-AMC fluorescence, 0.01% Triton | Potency, µM, for inactives: max response, negative = inhibition, hits mostly inhibitors | actives 0.43% (n = 200,000) | AID 1478, 2009;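 note: plate controls were neutral wells for no effect and buffer without enzyme for full effect; nearly all actives have a fitted effect of over 40% in size; top concentration of the series not given in the record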
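Cruzain (1.5 nM) preincubated 15 min at RT with compound in 100 mM sodium acetate pH 5.5, 5 mM DTT, 0.01% Triton X-100. Reaction started with 2 uM Z-FR-AMC; AMC fluorescence (ex 360/em 450 nm) change over 60 s gave rate.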
SARS PLP yeast: qHTS of Yeast-based Assay for SARS-CoV PLP | AID 485353, 2010 | actives 0.19% (n = 330,000) | S. cerevisiae expressing SARS-CoV PLpro, growth rescue; control for the full effect not named in the record | Potency, µM (series often up to 32.9 µM), without a hit: at the top dose activity, positive = growth rescue; active means well fitted rising curve with a large enough effect; inconclusive means small, poorly fitted or top-dose-only effect; inactive means no such curve, though single readings can be large or run the other way; note: 0% is about no effect; nearly all actives have a fitted effect of over 55% in size; growth read by luminescence after 48 h
RE007 growth inh: qHTS Assay for Inhibitors of the HIV-1 protein Vpr. S. pombe RE007 Vpr strain, BacTiter-Glo ATP luminescence, 24 h; control for the full effect not named in the record. Potency, µM (highest dose often 92.2 µM), inactives show at the top dose activity change, negative = less growth. actives 0.21% (n = 360,000). AID 651644, 2012; active = well fitted falling curve with a large enough effect; inconclusive = small, poorly fitted or top-dose-only effect; inactive = no such curve, though single readings can be large or run the other way;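 note: % is set by controls: 0 for no effect and ±100 for the full control effect; nearly all actives have a fitted effect of over 50% in size; the assay follows cell death caused by Vpr and the record does not say whether a fall means rescue or toxicity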
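Fission yeast strain RE007, carrying one chromosomally integrated HIV-1 vpr copy, was seeded at OD 0.01 in PMG+AL medium with 23 nL pinned compound. After 24 h at 30 °C and 99% humidity, viability was read by BacTiter-Glo luminescence.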
* marks the source's active call; other numbers are inactive results; ? = inconclusive; · = not tested or not shown; & = joins results of further samples; [ ] = remark or other dose. Unless noted, calls come from the whole dose curve; as a rule, active = well fitted curve in the direction sought with a large enough effect; inconclusive = small, poorly fitted or top-dose-only effect, or another doubt; inactive = no such curve, though single readings can be large; an effect the other way counts as inactive or inconclusive. Potency is the fitted concentration of half-maximal effect.

SMILES	NS1 inh	Cruzain noTriton	Marburg entry inh	2A StopGo	Lassa entry inh	Cruzain Triton	SARS PLP yeast	RE007 growth inh
CCCCC1(C)NC(=O)c2c(C)sc(C(=O)OCC)c2N1 (stereo not drawn)	13%	-1%	?	-22%	-4%	-12%	-16%	33%
O=C(COc1ccccc1)OCc1cc(=O)n2nc(-c3cccs3)sc2n1	·	7%	·	15%	-4%[46.1 µM]	-3.0%	·	·
Clc1nc(-c2n[nH]nc2Cl)n[nH]1	6%	?	9%&9%	9%	22%	2.0%	0%	-2%
Cc1c(CNC2CCCCC2)c(C(=O)O)c(C)n1Cc1ccc(Cl)cc1	·	7%	?	-4%	2%[46.1 µM]	-1.8%	·	·
O=C(CN1C(=O)c2ccc([N+](=O)[O-])cc2C1=O)NCC1CCCO1 (stereo not drawn)	·	·	?	-14%	-3%	·	2%	0%
Cc1ccc(S(=O)(=O)N2C(=O)C(C)SC2=Nc2ccccc2)cc1 (stereo not drawn)	4%	-3%	?	10%	?	-0.9%	-22%	-5%
Cc1ccc(S(=O)(=O)Nc2ccccc2CNc2ccc(Br)cn2)cc1	2%	?	?	?	-17%	-3.2%	-18%	-15%
CCC1Oc2ccccc2N(CC(=O)NCC2CCCO2)C1=O (stereo not drawn)	0%	·	-10%[46.1 µM]	17%	-4%[46.1 µM]	·	1%	3%
Cc1ccc2nsnc2c1NC(=O)c1ccc(-c2cc(Cl)ccc2Cl)o1	17%	-19%	?	?	?	-6.7%	10%	-7%
COc1ccc(CN2CC(C(=O)NCc3cccc(OC)c3)CC2=O)cc1 (stereo not drawn)	?	6%	-11%	-11%	2%	1.6%	-5%	0%
Cc1cc(C)cc(N(CC(=O)Nc2ccc(C)cc2Cl)S(=O)(=O)c2c(C)[nH]c(=O)[nH]c2=O)c1	3%	?	-12%&-12%&-12%[46.1 µM]	-7%&-7%	10%[46.1 µM]	-4.9%	5%	4%
COc1ccc(NC(=O)CSc2nc3cccnc3n2C)cc1	0%	·	24%[46.1 µM]	-5%	·	·	-1%	10%
C=CC[n+]1c(/C=C/c2ccc(OC(C)=O)c(OC)c2)ccc2ccccc21	12%	·	·	-22%	·	·	0%	-2%
COc1ccc(CCNS(=O)(=O)c2cccc(C(=O)O)c2)cc1OC	3%	5%	22%	-8%	18%	4.4%	-3%	-9%
COc1ccccc1Nc1nc(=O)[nH]nc1C	10%	5%	2%	-12%	12%	1.0%	-4%	6%
COc1ccc(NC(=O)C2CCCN(C)C2)cc1OCC(C)C (stereo not drawn)	-2%	11%	?	-3%	0%	0.7%	-5%	13%
CS(=O)(=O)N1CCN(c2ccccc2NC(=O)c2ccc([N+](=O)[O-])o2)CC1	6%	·	?	?	?	·	0%	-15%
CCN(C(=O)COC(=O)c1cc(-c2ccccc2)nc2c1c(C)nn2-c1ccccc1)C1CCS(=O)(=O)C1 (stereo not drawn)	-5%	?	-1%	?	-12%	-4.8%	8%	2%
O=C(COC(=O)Cn1cnc2ccccc2c1=O)Nc1ccccc1OC(F)F	·	·	-14%[46.1 µM]	-12%	-2%[46.1 µM]	·	-6%	3%
Cc1cc(=O)[nH]c2nnc(SCc3c(F)cccc3Cl)n12	·	-12%	·	13%	-8%[46.1 µM]	-3.8%	·	·
Cc1onc(-c2ccccc2)c1C(=O)NC(C)c1ccccc1 (stereo not drawn)	·	·	-7%[46.1 µM]	24%	3%[46.1 µM]	·	·	-16%
CN(NC(=O)COc1ccccc1)c1ccccc1	-6%	8%	?	-27%	18%	5.6%	11%	18%
Cc1ccc(O)c(-c2cc(C(=O)NCc3ccc4c(c3)OCO4)[nH]n2)c1	-2%	3%	?	13%	?	-9.7%	-5%	1%
CCC(Cc1ccccc1)n1c(=S)[nH]c2ccccc2c1=O (stereo not drawn)	·	·	-9%[46.1 µM]	11%	-2%	·	21%	0%
COc1ccc(C(=O)Nc2ccc(N3CCN(c4ccc(OC)cc4)CC3)c(C#N)c2)cc1	-6%	-14%	?	-10%	-1%	6.8%	-1%	4%
CCOc1ccc(-n2ccnc2SCC(=O)Nc2ccc(OC)cc2OC)cc1	·	0%	·	-3%	-5%[46.1 µM]	-5.3%	·	·
COc1ccc(CNC(=O)C(C)n2nc(C)c3c(C)n(-c4ccccc4)nc3c2=O)c(OC)c1 (stereo not drawn)	-13%	-12%	-28%&-28%[46.1 µM]	?	1%&-4%[46.1 µM]	-6.0%	9%	-14%
COc1ccc(C(=O)CSc2nnc(CNC(=O)c3ccccc3)o2)cc1	12%	·	·	-4%	·	·	6%	-1%
Cc1cccc2cc(/C=N/NC(=O)c3ccccc3O)c(Cl)nc12	-3%	-9%	-15%	?	0%	-11%	-11%	-10%
Cn1ncc(Br)c1NC(=O)Nc1ccccc1	0%	·	·	1%	·	·	0%	3%
CN1CCN(C(=O)c2cccn(Cc3ccc(C(F)(F)F)cc3)c2=O)CC1	5%	·	·	-7%	·	·	2%	0%
O=C(NCc1ccccn1)c1cccs1	7%	-18%	27%	-12%	0%	-4.8%	2%	-3%
O=C(COc1ccccc1Cl)NCCNC(=O)c1ccncc1	-5%	·	3%[46.1 µM]	12%	?	·	3%	19%
CCn1nc(NC(=O)c2ccncc2)c2cc3ccc(C)cc3nc21	-2%	?	?	-3%	-12%	-6.6%	2%	-3%
COc1ccc(Br)c(C(=O)Nc2cc3c(cc2N2CCOCC2)n(C)c(=O)n3C)c1	·	-2%	-12%[46.1 µM]	-21%	-1%[46.1 µM]	-1.0%	·	·
Cc1cc(C)n(/N=C/c2cccc([N+](=O)[O-])c2)c(=O)c1	13%	-13%	?	34%[activator]	2%	-0.5%	-3%	8%
COc1ccc(C=C2C(=O)N(C)C(=O)N(C)C2=O)cc1CSc1ccccn1	5%	3%	21%	?	-7%	0.4%	-3%	-6%
CCN(Cc1ccccc1)c1ccc(/C=N/N2CCOCC2)cc1	-25%	5%	?	19%	-8%	-11%	-13%	8%
Cn1nccc1CNC(=O)c1c(Cl)cnn1C	7%	-5%	6%	3%	-7%	0.1%	12%	·
COc1cc(NC(=O)C2CCCC2)c(OC)cc1Cl	-11%	19%	24%	-18%	-21%	-2.0%	8%	19%
COc1ccc(OC)c(-c2c3c([nH]c(=S)c2C#N)CCCC3)c1	11%	·	13%[46.1 µM]	2%	-28%	·	0%	-22%
CCN1CCN(C(=O)C2=CC(c3ccc(C)cc3)=NS(=O)(=O)N2C)CC1	9%	·	·	0%	·	·	2%	-1%
Cc1cc(NC(=O)CSc2nc3ccccc3c(=O)n2CCCC(=O)NCc2ccco2)n[nH]1	?	-7%	15%	42%[activator]	12%	-0.2%	-8%	3%[3.69 µM]
CC1CC(C)CN(CCCNC(=O)c2c(O)nc3ccccn3c2=O)C1 (stereo not drawn)	·	·	-12%[46.1 µM]	-5%	12%	·	4%	-5%
COc1ccc(NC(=O)CN(c2ccc(C)cc2)S(=O)(=O)c2cccc3nonc23)cc1OC	·	?	·	1%	-21%[46.1 µM]	-5.6%	·	·
Cc1cc(NS(=O)(=O)c2ccc(NS(=O)(=O)c3cc(C)c(Cl)cc3Cl)cc2)no1	?	·	?	7%	12%	·	1%	7%
CSc1cccc(NC(=O)CCS(=O)(=O)c2cccc3nonc23)c1	-3%	·	2%[46.1 µM]	23%	-10%	·	-12%	7%
CCc1ccc(NC(=O)C(C)OC(=O)c2ccc(-n3cnnn3)cc2)cc1 (stereo not drawn)	·	·	-19%[46.1 µM]	-11%	18%	·	-10%	5%
O=C(O)c1cccc(-c2ccc(/C=N/NC(=O)c3cccnc3)o2)c1	16%	4%	?	10%	7%	-11%	4%	1%
Oc1ccc(-c2cn3cc(C(F)(F)F)ccc3n2)cc1	-3%	9%	5.8µM*	-27%	2µM*	-4.5%	-17%	-8%
COc1ccc(-c2csc3nc(C(C)C)oc(=O)c23)cc1OC	1%	·	-10%[46.1 µM]	-10%	-18%	·	-2%	10%
Cc1nnc(NCc2ccc(F)cc2)c2c1nnn2Cc1ccccc1Cl	·	13%	?	-14%	-1%[46.1 µM]	1.0%	·	·
c1ccc(COC2CCCN(Cc3nc(-c4cnccn4)no3)C2)cc1 (stereo not drawn)	-4%	·	2%[46.1 µM]	-18%	15%[46.1 µM]	·	1%	-10%
O=C(O)C1CC(=O)N(c2ccc(F)c(F)c2)C1 (stereo not drawn)	-1%	-9%	?	-18%	-14%	0.2%	5%	16%
Cc1noc(C)c1CSc1nc2sc(C)c(C)c2c(=O)n1C1CCCC1	-6%	-9%	12µM*	10%	-23%	4.0%	-3%	0%[3.69 µM]
COC(=O)c1ccccc1NC(=O)CSc1nc2sc3c(c2c(=O)[nH]1)CCCC3	·	-14%	2%[46.1 µM]	-23%	-2%[46.1 µM]	-4.7%	·	·
O=C(O)CSc1nnnn1C1CCCCC1	9%	·	-3%[46.1 µM]	1%	-9%	·	1%	-13%
COc1cc(NC(=O)c2[nH]c(C)c(C(C)=O)c2C)cc(OC)c1OC	?	·	6%[46.1 µM]	-9%	-10%[46.1 µM]	·	3%	-22%
O=C(NC(=S)Nc1cccc2c(O)cccc12)c1ccccc1[N+](=O)[O-]	6%	·	?	14%	19%[46.1 µM]	·	21%	2%
Cn1c(=O)oc2cc(S(=O)(=O)Nc3ccc4c(c3)OCO4)ccc21	9%	32µM*	7%	51%[activator]	-3%	2.3%	2%	-3%
Clc1ccccc1CN1CCSCC1	2%	·	·	-1%	·	·	-3%	3%
Cc1ccc(S(=O)(=O)C(CNS(=O)(=O)c2cc(F)ccc2F)c2cccs2)cc1 (stereo not drawn)	·	-4%	·	26%	-7%[46.1 µM]	-5.2%	·	·
